miR-21 reporter: miR-21 reporter, rising signal | AID 2288 | 340,000 tested, under 10 active | Potency, µM (top dose mostly 38.3 µM), inactives show at the highest dose reporter change, positive = more light | HeLa miR-21 FLuc reporter, luciferase, 48 h; active = well fitted rising curve with a large enough effect; inconclusive = small, poorly fitted or top-dose-only effect; inactive = no such curve, though single readings can be large or run the other way;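 note: % of control where 0% means no effect; miR-21 action dims this reporter so a rising signal means less miR-21 action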
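HeLa miR-21-FLuc reporter line, endogenous miR-21; 2000 cells/well in DMEM/10% FBS; compound titration up to ~40uM final, 48 h, 37 degree Celsius; luciferase detection reagent, 15 min lysis, CCD luminescence.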
Numbers without * were called inactive; ? = inconclusive. Not all compounds are listed (hit frequency here may not be typical).

Preview, two compounds:
SMILES | miR-21 reporter
CC(C)c1ccc(NC(=O)C2CCN(S(=O)(=O)c3cccc4nsnc34)CC2)cc1 | -2.3%
CCOC(=O)c1cccc(NC(=O)CSc2nc3cc4ccccc4cc3[nH]2)c1 | 4.1%

The listing, repeating the preview:
SMILES | miR-21 reporter
CC(C)c1ccc(NC(=O)C2CCN(S(=O)(=O)c3cccc4nsnc34)CC2)cc1 | -2.3%
CCOC(=O)c1cccc(NC(=O)CSc2nc3cc4ccccc4cc3[nH]2)c1 | 4.1%
CCc1ccc(CNC(=O)CN2C(=O)CSc3ccc(S(=O)(=O)N4CCOCC4)cc32)cc1 | 1.3%
Cc1c(Cl)cccc1NC(=O)c1cc(-c2cccc(Cl)c2)on1 | 4.2%
COc1ccccc1CNC(=O)c1cc2c(s1)-c1ccc(Cl)cc1SC2 | -0.1%
COCCOC(=O)Cn1nnc2sc(-c3ccccc3)cc2c1=O | -2.5%
Cc1ccc(C)c(N2CCN(C(=O)CCS(=O)(=O)c3cc4c(cc3Cl)NC(=O)CO4)CC2)c1 | -5.7%
COc1ccccc1C(=O)OCc1cc(=O)n2c(C)csc2n1 | -78.2%
CCOc1ccc(CNC(=O)c2ccc3c(c2)nnn3C2CCCC2)cc1 | -9.8%
COc1ccc2c(c1)c1c(c(=O)n(-c3cccc(Cl)c3)c(=O)n1C)n2C | 0.0%
COc1ccccc1CCNC(=O)c1ccc(-c2nc(CSc3ccc(C)cc3)c(C)o2)cc1 | 4.7%
CCOC(=O)c1ccccc1NC(=O)CCc1c(C)nc2c(c1C)c(=O)n(C)c(=O)n2C | 0.5%
O=C(Nc1ccccc1)O[C@@H]1C[C@H]2CCC(=O)N3CC[C@@H](C1)[C@@H]23 | -43.7%
O=C(CCC1CCCNC1)c1ccccc1 (stereo not drawn) | -1.7%
CCC(O)c1cc2c(cc1NC(=O)c1ccccc1F)OCCO2 (stereo not drawn) | -2.3%
Cc1cccc2c1-c1sc(C(=O)N3CCN(c4cccc(Cl)c4)CC3)cc1CO2 | 3.4%
CCCCC(CC)CNC(=O)c1ccc2c(=O)n(Cc3ccc(OC)cc3)c(=O)[nH]c2c1 (stereo not drawn) | -8.9%
CC(=O)c1sc2c(c1C)c(=O)n(-c1ccc(Cl)cc1)c(=O)n2Cc1ccc(Cl)cc1 | 11.9%
COc1ccc(-c2oc3ncn4nc(COc5cccc(C)c5C)nc4c3c2-c2ccc(OC)cc2)cc1 | -13.7%
CCN(CC)S(=O)(=O)c1ccc(NC(=O)NCc2noc3ccc(C)cc23)cc1 | ?
COc1ccc(Cc2nc3ccc(C(=O)NCc4ccc(OC)cc4OC)cc3o2)cc1 | -0.7%
Cc1ccc(OCC(=O)N(Cc2ccco2)Cc2ccco2)cc1C | -17.3%
O=C(Nc1cccc(Cl)c1)c1cc(S(=O)(=O)N2CCC3(CC2)OCCO3)ccc1F | 11.9%
CCS(=O)(=O)Nc1ccc(-c2cn3ccsc3n2)cc1 | -58.3%
CCOc1ccc(CNC(=O)C2CCN(Cc3cc4ccccc4n3Cc3ccccc3C)CC2)cc1 | 17.7%
CC(=O)N1CCCc2cc(S(=O)(=O)N(Cc3ccccc3)C(C)C)ccc21 | 22.3%
Cc1cccc(C(=O)N2CCc3cc(CNC(=O)c4ccc(Br)o4)ccc32)c1 | 14.6%
CN(Cc1ccccc1)c1ccc(-c2nc(-c3ccccc3)no2)cc1[N+](=O)[O-] | 0.0%
Cc1[nH]c2ccccc2c1C1(O)C(=O)N(Cc2ccccc2)c2ccc(Br)cc21 (stereo not drawn) | ?
Cc1cccc(N2CCN(C(=O)c3noc4c3CCCCC4)CC2)c1C | -1.2%
CCOC(=O)c1ccccc1NC(=O)CSc1ncc(CO)n1Cc1ccc(C)cc1 | 24.3%
CC(C)(C)NC(=O)C1CCN(c2nc3ccccc3nc2C(F)(F)F)CC1 | 0.1%
CCN(Cc1nc(-c2cccc(C)c2)no1)S(=O)(=O)c1ccc(C)cc1 | 2.0%
CCC(C)NC(=O)CSc1nc2c(sc3ccccc32)c(=O)n1CCc1ccccc1 (stereo not drawn) | -8.8%
COCCCNC(=O)Cn1c(=O)n(-c2ccc(Cl)cc2)c(=O)c2c3c(sc21)CCCCC3 | -2.4%
Cc1ccc(C(=O)Nc2ccc(OCc3cc(=O)n4c(C)csc4n3)cc2)cc1 | -3.8%
Cc1c(F)cccc1NC(=O)C1CCCN1S(=O)(=O)c1ccc(F)cc1 (stereo not drawn) | 7.7%
O=C(CN1C(=O)COc2ccc(S(=O)(=O)NC3CCCC3)cc21)Nc1ccc(Cl)cc1F | 1.1%
COC(=O)c1ccc2nc(C)cc(Nc3ccc(O)cc3)c2c1 | 16.1%
O=C(NCCCN1CCCCC1)c1sc2ncccc2c1-n1cccc1 | 1.8%
O=C(c1ccc2c(c1)N(Cc1cccc(Cl)c1)C(=O)c1ccccc1S2(=O)=O)N1CCc2ccccc21 | 12.8%
O=C(Cn1c(=O)n(Cc2nc(-c3ccccc3)no2)c(=O)c2cc3c(cc21)OCO3)Nc1cccc(C(F)(F)F)c1 | 25.0%
CCS(=O)(=O)c1ncc(N(Cc2ccco2)Cc2ccccc2F)c(C(=O)Nc2cccc(Cl)c2)n1 | -0.7%
CC(=O)Nc1ccc(NC(=O)C2Cc3ccccc3N2C(=O)c2ccccc2)cc1 (stereo not drawn) | -0.1%
CC1=C(C(=O)OCC2CCCCC2)C(c2ccc(Cl)cc2Cl)CC(=O)N1 (stereo not drawn) | -0.7%
Cc1ccc2c(=O)cc(C(=O)Nc3cccc(C(F)(F)F)c3)oc2c1C | -1.6%
Cc1cccc(N(CC(=O)N(C)Cc2ccccc2)S(=O)(=O)c2ccccc2)c1C | 0.4%
Cc1ccc2oc(-c3ccc(Cl)c(NC(=O)c4cc5ccccc5o4)c3)nc2c1 | -68.2%
O=C1[C@@H]2CSC(c3ccc(F)cc3)N2C(=O)N1c1ccc(Cl)cc1 (stereo partly drawn) | -7.8%
O=C(NCc1ccc(F)cc1)C1CCN(c2ncnc3c2nc2n3CCCCC2)CC1 | -9.2%
CC(C)c1nn2c(=O)cc(COC(=O)C3CCCCC3)nc2s1 | 2.4%
CCCCn1c(=O)c2oc3ccccc3c2n(Cc2cccc(C)c2)c1=O | 0.2%
O=C(c1ccc([N+](=O)[O-])cc1)N(Cc1ccco1)c1ccccn1 | -0.8%
Cc1ccc(-n2ncc3c(N4CCN(c5ccccc5)CC4)ncnc32)cc1C | -6.2%
CCN1CCN(c2cc(C)c3cc(NC(=O)/C=C/c4ccc(OCCC(C)C)cc4)ccc3n2)CC1 | -14.2%
O=C(Nc1ccccc1F)c1oc2ccccc2c1NC(=O)c1c(F)cccc1F | -12.7%
CCOc1ccc(CCNC(c2nnc(-c3ccccc3)o2)c2ccccc2Cl)cc1OCC (stereo not drawn) | ?
COc1cccc(C(=O)NCC(c2ccc3c(c2)OCO3)N2CCN(C)CC2)c1 (stereo not drawn) | -11.4%
O=C(Cc1cccs1)NC1CC(=O)N(c2ccc(F)cc2)C1 (stereo not drawn) | 0.9%
COc1ccc(CC(=O)Nc2ccc(-c3nc4ccccc4s3)c(C)c2)cc1OC | -9.8%

A draw from above in order of number of heavy atoms, high to low.
SMILES | miR-21 reporter
CCOc1ccc(CCNC(c2nnc(-c3ccccc3)o2)c2ccccc2Cl)cc1OCC (stereo not drawn) | ?
COc1ccc(CC(=O)Nc2ccc(-c3nc4ccccc4s3)c(C)c2)cc1OC | -9.8%
COc1cccc(C(=O)NCC(c2ccc3c(c2)OCO3)N2CCN(C)CC2)c1 (stereo not drawn) | -11.4%
CCCCn1c(=O)c2oc3ccccc3c2n(Cc2cccc(C)c2)c1=O | 0.2%
O=C1[C@@H]2CSC(c3ccc(F)cc3)N2C(=O)N1c1ccc(Cl)cc1 (stereo partly drawn) | -7.8%
CC(C)c1nn2c(=O)cc(COC(=O)C3CCCCC3)nc2s1 | 2.4%
O=C(Cc1cccs1)NC1CC(=O)N(c2ccc(F)cc2)C1 (stereo not drawn) | 0.9%

Remaining list, next part.
SMILES | miR-21 reporter
CCOC(=O)c1cccc(NC(=O)C2CCCN(c3nnc(C)c4c(C)n(-c5ccccc5)nc34)C2)c1 (stereo not drawn) | 7.8%
CC(=O)N1CCc2cc(CNS(=O)(=O)c3cccs3)ccc21 | -42.9%
CCN(C(=O)CSc1nnc(-c2cc(OC)c(OC)c(OC)c2)o1)c1ccccc1 | 5.7%
CN1C(=O)c2ccccc2Sc2ccc(NC(=O)Cc3ccc(Cl)cc3)cc21 | ?
CCOc1ccc(-c2nc3cc(NC(=O)COc4cccc(C)c4)ccc3o2)cc1 | 1.7%
COc1ccccc1Nc1nc(-c2ccccc2Cl)c2cc(Br)ccc2n1 | 0.9%
CCOC(=O)c1c(S(=O)(=O)N2CCCC(C(=O)Nc3ccc(C)cc3C)C2)c(C)n(CC)c1C (stereo not drawn) | -1.3%
CC(C)CCNC(=O)Nc1ccc2c(c1)N(Cc1ccccc1)C(=O)c1ccccc1S2 | ?
COCCNC(=O)c1cccc(-n2c(C)nc3cccnc32)c1 | -0.5%
COc1ccc(NC(=O)c2csnn2)cc1Cl | -51.0%
COc1ccc(NC(=O)c2oc3ccccc3c2NC(=O)C23CC4CC(CC(C4)C2)C3)c(OC)c1 | -0.6%
CCOc1ccc(NC(=O)c2sc3nc4c(cc3c2N)CN(Cc2ccccc2)CC4)cc1 | 5.7%
COc1ccc(C2=C(C)C(N3CCC(C(=O)Nc4ccc(F)cc4C)CC3)=NS2(=O)=O)cc1 | -1.9%
O=C(Cn1cc(S(=O)(=O)Cc2cccc(Cl)c2)c2ccccc21)NCCc1ccccc1 | -0.6%
COc1ccc(Oc2nc3c(C)cccn3c(=O)c2/C=C(\C#N)c2nc3ccccc3[nH]2)cc1 | -13.3%
Cn1ncc(C(=O)N2CCN(c3ccccc3F)CC2)c1C1CCN(C(=O)OC(C)(C)C)CC1 | -7.0%
Cc1nc(C)c(CCNS(=O)(=O)c2ccc(C)c(C)c2)s1 | 6.4%
CCOC(=O)c1ccc2c(c1)N(Cc1ccc(F)cc1Cl)C(=O)c1ccccc1S2 | 6.3%
O=c1c(S(=O)(=O)c2ccccc2)cn(Cc2cccc(F)c2)c2cc(N3CCCC3)c(F)cc12 | -8.4%
Cc1ccc(CN2CCN(C3CCN(C(=O)Nc4ccccc4C(F)(F)F)CC3)C(=O)C2=O)cc1 | 7.1%
Cc1cc(NS(=O)(=O)c2ccc(NC(=O)COc3cc(C)c(Br)cc3C(C)C)cc2)no1 | -13.2%
CCc1cccc(-n2nnc(-c3nc(-c4ccc5c(c4)OCO5)no3)c2C)c1 | -27.8%
COc1ccc(Nc2cc(C(=O)NCc3ccccc3)c3ccccc3n2)c(OC)c1 | 9.5%
O=C(Nc1nc2c(F)cccc2s1)c1ccc(S(=O)(=O)N2CCOCC2)cc1 | -9.2%
COc1ccc(-n2cc(-c3ccccc3)c3c(Nc4ccc(OC)c(OC)c4)ncnc32)cc1 | -6.1%
CCOc1ccc(OCC)c(NC(=O)C2CCN(S(=O)(=O)c3c(C)noc3/C=C/c3ccccc3F)CC2)c1 | -1.2%
O=C(CC(=O)Nc1ccccc1F)Nc1ccc2nc3n(c(=O)c2c1)CCCCC3 | -22.1%
Cc1cccc(-n2c(C)cc(C(=O)C(=O)Nc3ccccc3F)c2C)c1C | 0.3%
COc1ccc(CNC(=O)c2ccc3c(c2)N(Cc2ccccc2)C(=O)c2ccccc2S3(=O)=O)cc1 | 0.5%
Cc1ccc(CSc2c(C)cnc3c2c(=O)n(C)c(=O)n3C)cc1 | -3.5%
CCOC(=O)c1c(NC(=O)c2cc(=O)c3cc(C)ccc3o2)sc2c1CCCC2 | -4.5%
COc1ccc(-c2csc3ncnc(Nc4ccc(OC)cc4OC)c23)cc1 | -11.6%
COc1ccc(C)cc1NC(=O)c1cnc2ccc(C)cn2c1=O | -10.8%
CC(Nc1ncnc2c1cnn2-c1cccc(Cl)c1)c1ccccc1 (stereo not drawn) | 5.0%
CCc1ccc(C2CC(=O)c3c([nH]c(C(=O)OC4CCC(C)CC4)c3C)C2)cc1 (stereo not drawn) | -2.1%
O=C(/C=C\c1ccc2c(c1)OCO2)NC1CC(=O)N(c2ccc(Cl)cc2)C1 (stereo not drawn) | 3.3%
CCOC(=O)C1CCN(C(=O)CN2c3ccc(CC)cc3-c3ccccc3S2(=O)=O)CC1 | -1.4%
CC(C)CN(CCCNC(=O)CN1N=C(c2ccccc2)CCC1=O)CC(C)C | -3.1%
Cc1ccccc1-c1cc2nccc(-c3cc(Cl)ccc3O)n2n1 | -3.1%
CNS(=O)(=O)c1cn(CC(=O)Nc2ccc(C)cc2C)cc1S(=O)(=O)NC | -3.4%
CCOC(=O)c1c(-c2ccccc2)csc1NC(=O)c1cc(-c2ccc(F)cc2)on1 | -1.6%
CC(NS(=O)(=O)c1ccc2c(c1)CCN2C(=O)CCCC(=O)O)c1ccccc1 (stereo not drawn) | -1.2%
COc1cc(OC)c(OC)cc1/C=C/c1nc2ccccc2c(=O)n1-c1ccc(Br)c(C)c1 | 9.7%
COc1ccc(-n2cc(C(=O)NCCc3cc(OC)ccc3OC)c3ccccc3c2=O)cc1 | -9.5%
COc1ccc(NC(=O)CSc2nc(-c3ccco3)cc(C(F)(F)F)n2)cc1Cl | 16.7%
Cc1cc2oc(C(=O)N(Cc3ccc(Cl)cc3)Cc3ccco3)c(C)c2cc1Cl | -2.4%
COc1ccc(-c2noc(CSc3nnc(C)n3-c3ccc(C)cc3)n2)cc1OC | -8.3%
O=C(Nc1ccc(SC(F)F)cc1)c1cc(-c2ccc3c(c2)OCCO3)on1 | -25.2%
Cc1ccc(NC(=O)Cn2c(=O)n(Cc3nc(C)no3)c(=O)c3cc4c(cc32)OCO4)c(C)c1 | -1.0%
CCOC(=O)c1c(C)[nH]c(C)c1S(=O)(=O)N(C)CC(=O)NCc1ccc(Cl)cc1 | -2.6%
Cc1nn(-c2ccccc2)c2nc(C3CC3)cc(C(=O)NCc3ccccc3Cl)c12 | -4.4%
COc1ccc(NC(=O)C2CCCN(c3ncnc4onc(C)c34)C2)cc1OC (stereo not drawn) | -1.7%
COc1cc(/C=C/c2nc(C#N)c(N3CCCCC3)o2)cc(OC)c1OC | -7.1%

Screening results deposited in PubChem by National Center for Advancing Translational Sciences (NCATS).
